RGS16-Gao HTS – modulators of RGS16 binding to Galphao, primary screen, biochemical, human proteins, multiplexed bead flow cytometry. Regulator of G-protein signaling 16 (Homo sapiens) + Guanine nucleotide-binding protein …. binding response (% of control), % at 10 µM. bead-based flow cytometry RGS16-Galphao binding, fluorescence; actives lie on both sides. 0.38% of 220,000 active;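 active = below 25% or above 175%, edge rows of some plates excepted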;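 also: Galphao activated by GDP with aluminum fluoride before binding; 100% = wells without compound and 0% = beads without RGS; some results beyond the cut were filed as inactive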
Target sequence (O15492 whole entry, looked up): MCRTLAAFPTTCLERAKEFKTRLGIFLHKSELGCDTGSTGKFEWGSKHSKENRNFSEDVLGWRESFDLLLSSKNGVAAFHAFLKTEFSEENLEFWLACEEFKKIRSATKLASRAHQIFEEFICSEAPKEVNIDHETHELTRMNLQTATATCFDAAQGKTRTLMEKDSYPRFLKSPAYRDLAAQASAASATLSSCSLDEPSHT
Target sequence (P09471 whole entry, looked up): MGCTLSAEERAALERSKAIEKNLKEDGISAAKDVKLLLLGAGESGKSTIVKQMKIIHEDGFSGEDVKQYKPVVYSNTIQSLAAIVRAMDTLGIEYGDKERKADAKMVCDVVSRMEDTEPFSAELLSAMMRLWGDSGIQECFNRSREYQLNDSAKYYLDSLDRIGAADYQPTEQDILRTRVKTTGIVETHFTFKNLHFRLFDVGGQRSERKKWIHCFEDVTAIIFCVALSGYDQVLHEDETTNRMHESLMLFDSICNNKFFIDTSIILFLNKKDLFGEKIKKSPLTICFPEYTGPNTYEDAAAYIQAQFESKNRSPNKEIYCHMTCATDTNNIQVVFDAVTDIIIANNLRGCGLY
PKD1 kinase inh – inhibitors of human PKD1 kinase, biochemical, fluorescence polarization. Serine/threonine-protein kinase D1 (Homo sapiens), Q15139. PKD1 kinase fluorescence polarization assay. inhibition, %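 (about 10 µM by stock and volumes)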. 0.056% of 200,000 active. AID 797, 2007;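 active = inhibition of 50% or more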;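 also: controls were vehicle for no effect and a reference inhibitor for full effect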
HSV augment – enhancers of HSV replication in host cells, fold increase, host cell viability | 0.005% of 220,000 active | HSV replication augmentation in cells | AID 1956, 2009 | maximum fold increase;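 active = peak rise of 1.5-fold or more in the series; inconclusive = self-fluorescent or not available for retest; tested in PC3 cells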;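 also: first round at 10 µM; read as green reporter fluorescence; hits show the peak of a series up to 25 µM; 1 = signal of infected wells without compound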
Insulin prom inh – inhibitors of insulin promoter-driven GFP, primary screen, imaging, TRM-6 cells (human fetal islet line), eGFP reporter, cell count. reporter expression induced with tamoxifen. inhibition, % at 2 µM. 0.9% of 130,000 active. AID 1273, 2008;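 active = inhibition above the mean plus 3 SD, with well images judged a real hit on visual review, cut at about 60% in these data, passing the limit was not always enough; inconclusive = inhibition over the cutoff but images rejected on review; inactive = inhibition not above the cutoff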
GALR2 agonist – GALR2 receptor agonists, primary screen, cell-based; GALR2-expressing cells, agonist activation read-out; AID 803, 2007; Galanin receptor type 2 (Homo sapiens), O43603; activation, %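 (tested at 5 µM)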; 0.48% of 140,000 active;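 active = above mean plus 3 SD of all compounds, about 5% in these data, not always enough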;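 also: 0% = vehicle buffer wells and 100% = reference agonist at full effect; tested in CHO reporter cells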
Target sequence (O43603 whole entry, looked up): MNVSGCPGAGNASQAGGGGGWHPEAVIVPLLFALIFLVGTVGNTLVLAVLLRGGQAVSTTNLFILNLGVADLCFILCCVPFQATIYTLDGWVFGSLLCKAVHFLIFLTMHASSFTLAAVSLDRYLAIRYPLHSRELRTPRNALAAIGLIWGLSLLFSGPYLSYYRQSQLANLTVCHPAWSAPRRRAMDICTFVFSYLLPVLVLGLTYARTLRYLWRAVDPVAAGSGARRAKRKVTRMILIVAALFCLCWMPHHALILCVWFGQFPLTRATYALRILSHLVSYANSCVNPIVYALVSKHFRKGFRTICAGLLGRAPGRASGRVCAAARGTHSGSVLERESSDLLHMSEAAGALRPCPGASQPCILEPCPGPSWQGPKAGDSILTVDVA
Insulin prom inh cell count – further read-out of Insulin prom inh, marked with its call; normalized cell count, %; measured here: cell count, toxicity; reference of the scale not given here;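 cells exposed to compound for 48 h; stained nuclei by imaging scaled within each plate; lower means fewer cells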
HSV augment primary fold – further read-out of HSV augment, marked with its call; fold increase; compound at 10 µM; measured here: primary screen fold increase 10 uM; tested in PC3 cells;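 GFP signal in the first replicate; 1 = infected wells without compound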
An asterisk follows results filed as active.

FC(F)(F)c1ccc(Cl)c(-n2c(-c3cc(-c4ccco4)[nH]n3)n[nH]c2=S)c1 was read as RGS16-Gao HTS 102, HSV augment inactive and HSV augment primary fold 1.1.
For CCCOc1ccc(C(=O)NC(=S)NNC(=O)c2c(-c3ccccc3)noc2C)cc1 the results were RGS16-Gao HTS 102, HSV augment inactive and HSV augment primary fold 0.77.
For CC1CCC2(CC1)NC(=O)N(CC(=O)Nc1sc3c(c1C(N)=O)CCC3)C2=O (centres undefined) the results were RGS16-Gao HTS 94, PKD1 kinase inh -1, HSV augment inactive and HSV augment primary fold 0.98.
For CC(=O)c1c(C)[nH]c(C(=O)OCC(=O)Nc2ccc(Cl)c(S(=O)(=O)N(C)C)c2)c1C the results were RGS16-Gao HTS 95, HSV augment inactive and HSV augment primary fold 0.9.
FC(F)(F)c1cccc(NC(=S)NC2CCCC2)c1 was read as RGS16-Gao HTS 104, PKD1 kinase inh -4, HSV augment inactive, Insulin prom inh -30, GALR2 agonist -1.2, Insulin prom inh cell count 155 and HSV augment primary fold 0.88.
For COc1c(C(O)CC(C)C)ccc2c1C(=O)OCc1cc(C)cc(O)c1O2 (centres undefined) the results were RGS16-Gao HTS 103, PKD1 kinase inh 16, HSV augment inactive and HSV augment primary fold 0.6.
Screening Cc1nc2ccccc2n1CC(=O)NCCN1CCOCC1 returned RGS16-Gao HTS 105, PKD1 kinase inh -1, HSV augment inactive, Insulin prom inh 17, GALR2 agonist -1.4, Insulin prom inh cell count 127 and HSV augment primary fold 0.98.
`CCOC(=O)CN1C2=NCCCN2c2ccccc21` gave RGS16-Gao HTS 94, PKD1 kinase inh -1, HSV augment inactive and HSV augment primary fold 0.97.
For CCCCn1c(SCc2nnc(-c3ccccc3)o2)nc2c1c(=O)n(C)c(=O)n2C the results were RGS16-Gao HTS 106, PKD1 kinase inh -12, HSV augment inactive, GALR2 agonist -2.5 and HSV augment primary fold 0.99.
CC(=O)Nc1cccc(C(=O)Oc2cccc(C)c2)c1O was read as RGS16-Gao HTS 98, PKD1 kinase inh -2, HSV augment inactive, Insulin prom inh 34, GALR2 agonist -1.3, Insulin prom inh cell count 119 and HSV augment primary fold 0.86.
For CC(C)(C)c1ccc(C2CC2C(=O)N/N=C\c2cc3ccccc3nc2Cl)cc1 (centres undefined) the results were RGS16-Gao HTS 114, PKD1 kinase inh -1, HSV augment inactive, Insulin prom inh -41, GALR2 agonist -1.4, Insulin prom inh cell count 144 and HSV augment primary fold 0.94.
Screening CC(C)c1nc2sc3c(NCc4ccco4)ncnc3c2c2c1COC(C)(C)C2 returned RGS16-Gao HTS 105, PKD1 kinase inh -1, HSV augment inactive, GALR2 agonist -1.2 and HSV augment primary fold 0.92.
`O=C(NNc1ncnc2c1cnn2-c1ccccc1)c1cccs1` gave RGS16-Gao HTS 106, PKD1 kinase inh -11, HSV augment inactive, Insulin prom inh -8, Insulin prom inh cell count 174 and HSV augment primary fold 0.87.
`CCOc1ccc2[nH]cc(C(=O)NCCCN3CCOCC3)c(=O)c2c1` gave RGS16-Gao HTS 100, PKD1 kinase inh -2, HSV augment inactive and HSV augment primary fold 0.9.
`CCN(CC)S(=O)(=O)c1ccc(N2CCCC2)c(C(=O)Nc2ccc(OC)c(Cl)c2)c1` gave RGS16-Gao HTS 101, PKD1 kinase inh -5, HSV augment inactive, Insulin prom inh 0, GALR2 agonist -0.7, Insulin prom inh cell count 128 and HSV augment primary fold 0.97.
Cc1onc(-c2ccccc2)c1C(=O)N1CCN(Cc2ccc3c(c2)OCO3)CC1 was read as RGS16-Gao HTS 106, PKD1 kinase inh 1, HSV augment inactive, Insulin prom inh -20, Insulin prom inh cell count 119 and HSV augment primary fold 1.
Screening CCCc1cc(-c2ccc(O)c(OCC)c2)c(C#N)c(N)n1 returned RGS16-Gao HTS 104, PKD1 kinase inh -10, HSV augment inactive, Insulin prom inh -9, GALR2 agonist 0.2, Insulin prom inh cell count 80 and HSV augment primary fold 0.9.
COCCCNC(=O)c1ccc(C2SCC(=O)N2Cc2ccco2)cc1 (centres undefined) was read as RGS16-Gao HTS 103, PKD1 kinase inh 0, HSV augment inactive, Insulin prom inh 27, Insulin prom inh cell count 71 and HSV augment primary fold 0.98.
`Cc1ccc(CC2CC(=O)N(c3nc4ccccc4n3C)C2=O)cc1` (centres undefined) gave RGS16-Gao HTS 100, PKD1 kinase inh -16, HSV augment inactive, Insulin prom inh 4, GALR2 agonist -1.6, Insulin prom inh cell count 96 and HSV augment primary fold 1.1.
`CNC(=O)c1cccc2cccc(Sc3ccccc3C(=O)O)c12` gave RGS16-Gao HTS 99, HSV augment inactive and HSV augment primary fold 0.91.
`O=C(CN1C(=O)COc2ccccc21)NCc1ccccn1` gave RGS16-Gao HTS 103, PKD1 kinase inh 5, HSV augment inactive, Insulin prom inh -11, GALR2 agonist -3.0, Insulin prom inh cell count 55 and HSV augment primary fold 0.88.
`CCOC(=O)Cc1csc(NC(=O)Cc2ccc(Cl)cc2)n1` gave RGS16-Gao HTS 97, HSV augment inactive and HSV augment primary fold 0.96.
For CC(=O)c1ccc(N2CCN(C(=O)C3CCCN(S(=O)(=O)c4cnc[nH]4)C3)CC2)cc1 (centres undefined) the results were RGS16-Gao HTS 80, PKD1 kinase inh 5, HSV augment inactive, Insulin prom inh 10, GALR2 agonist -0.3, Insulin prom inh cell count 55 and HSV augment primary fold 0.81.
O=C(CC(NS(=O)(=O)c1ccc(Cl)cc1)c1ccco1)N1CCc2ccccc21 (centres undefined) was read as RGS16-Gao HTS 103, PKD1 kinase inh -3, HSV augment inactive, Insulin prom inh -42, GALR2 agonist -1.1, Insulin prom inh cell count 51 and HSV augment primary fold 0.85.
CCOc1ccccc1C(=O)NC(CO)C(=O)O (centres undefined) was read as RGS16-Gao HTS 106, PKD1 kinase inh 1, HSV augment inactive, Insulin prom inh 6, GALR2 agonist -1.8, Insulin prom inh cell count 119 and HSV augment primary fold 1.3.
For O=C(NC1CCS(=O)(=O)C1)c1ccc(S(=O)(=O)NCC2CCCO2)cc1 (centres undefined) the results were RGS16-Gao HTS 103, PKD1 kinase inh 4, HSV augment inactive, Insulin prom inh 45, GALR2 agonist -2.2, Insulin prom inh cell count 154 and HSV augment primary fold 0.95.
`CCCC(=O)NC(c1cccs1)c1cc(Cl)c2cccnc2c1O` (centres undefined) gave RGS16-Gao HTS 110, PKD1 kinase inh -3, HSV augment inactive and HSV augment primary fold 0.93.
`CC(=O)Nc1ccc(NC(=O)C(C)OC(=O)/C=C/c2cn(-c3ccccc3)nc2-c2cccnc2)cc1` (centres undefined) gave RGS16-Gao HTS 104, PKD1 kinase inh -5, HSV augment inactive, Insulin prom inh -7, GALR2 agonist 0.5, Insulin prom inh cell count 135 and HSV augment primary fold 0.49.
`CC1CC1C(=O)Nc1nc(-c2cccs2)c(-c2cccs2)s1` (centres undefined) gave RGS16-Gao HTS 99, PKD1 kinase inh -10, HSV augment inactive, Insulin prom inh 18, GALR2 agonist -0.1, Insulin prom inh cell count 98 and HSV augment primary fold 0.91.
For CS(=O)(=O)Nc1cccc(C2=NN(C(=O)c3ccccc3Cl)C(c3ccccc3O)C2)c1 (centres undefined) the results were RGS16-Gao HTS 104, PKD1 kinase inh 6, HSV augment inactive, Insulin prom inh 38, GALR2 agonist 0.8, Insulin prom inh cell count 81 and HSV augment primary fold 0.8.
Screening Cc1ccc2c(CN3CCN(S(=O)(=O)/C=C/c4ccccc4)CC3)cc(=O)oc2c1 returned RGS16-Gao HTS 101, PKD1 kinase inh -1, HSV augment inactive, Insulin prom inh -100, GALR2 agonist -1.0, Insulin prom inh cell count 68 and HSV augment primary fold 0.99.
For COc1ccc(Cc2n[nH]c(=S)n2NC(=O)Nc2ccc(Cl)c(Cl)c2)cc1 the results were RGS16-Gao HTS 100, HSV augment inactive and HSV augment primary fold 1.1.
For CC(C)CC1(C)N=C(c2ccccc2)C(=S)N1 (centres undefined) the results were RGS16-Gao HTS 100, PKD1 kinase inh -1, HSV augment inactive and HSV augment primary fold 0.96.
COc1ccc(CNC(=S)Nc2ccc(F)c(Cl)c2)cc1OC was read as RGS16-Gao HTS 92, PKD1 kinase inh -3, HSV augment inactive, Insulin prom inh 11, Insulin prom inh cell count 124 and HSV augment primary fold 0.93.
`COc1cccc(-n2c(=O)n(Cc3ccccc3)c(=O)c3[nH]cnc32)c1` gave RGS16-Gao HTS 100, HSV augment inactive and HSV augment primary fold 1.1.
For CC(C)NC(=O)NC(=O)CN1C(=O)NC(Cc2c[nH]c3ccccc23)C1=O (centres undefined) the results were RGS16-Gao HTS 108, PKD1 kinase inh -9, HSV augment inactive, Insulin prom inh 24, Insulin prom inh cell count 103 and HSV augment primary fold 0.94.
`c1ccc(CN=C2Nc3ccccc3CS2)nc1` gave RGS16-Gao HTS 101, PKD1 kinase inh -2, HSV augment inactive and HSV augment primary fold 0.91.
CCCCn1cc(C(=O)c2cc(Br)ccc2O)cc(C#N)c1=O was read as RGS16-Gao HTS 102, PKD1 kinase inh -5, HSV augment inactive, Insulin prom inh 11, GALR2 agonist -2.7, Insulin prom inh cell count 77 and HSV augment primary fold 0.93.
O=C(Nc1ccc(NC(=O)c2ccco2)cc1)c1cnccn1 was read as RGS16-Gao HTS 74, PKD1 kinase inh -7, HSV augment inactive, Insulin prom inh -64, GALR2 agonist 0.2, Insulin prom inh cell count 71 and HSV augment primary fold 0.92.
`O=C(O)c1cc(N/N=C/c2ccc(N3CCOCC3)s2)ccc1Cl` gave RGS16-Gao HTS 97, PKD1 kinase inh 0, HSV augment inactive, Insulin prom inh -58, GALR2 agonist -2.4, Insulin prom inh cell count 48 and HSV augment primary fold 1.1.

The last 3 entries of the part before open the next one.
CCCCn1cc(C(=O)c2cc(Br)ccc2O)cc(C#N)c1=O was read as RGS16-Gao HTS 102, PKD1 kinase inh -5, HSV augment inactive, Insulin prom inh 11, GALR2 agonist -2.7, Insulin prom inh cell count 77 and HSV augment primary fold 0.93.
O=C(Nc1ccc(NC(=O)c2ccco2)cc1)c1cnccn1 was read as RGS16-Gao HTS 74, PKD1 kinase inh -7, HSV augment inactive, Insulin prom inh -64, GALR2 agonist 0.2, Insulin prom inh cell count 71 and HSV augment primary fold 0.92.
`O=C(O)c1cc(N/N=C/c2ccc(N3CCOCC3)s2)ccc1Cl` gave RGS16-Gao HTS 97, PKD1 kinase inh 0, HSV augment inactive, Insulin prom inh -58, GALR2 agonist -2.4, Insulin prom inh cell count 48 and HSV augment primary fold 1.1.
`O=C(c1cn(-c2ccccc2)nc1-c1cccc([N+](=O)[O-])c1)N1CCCCC1` gave RGS16-Gao HTS 104, PKD1 kinase inh -4, HSV augment inactive, Insulin prom inh -120, Insulin prom inh cell count 120 and HSV augment primary fold 0.94.
`CCOc1ccc(N(CC)C(=O)COc2cc(=O)n(C)c3ccccc23)cc1` gave RGS16-Gao HTS 100, PKD1 kinase inh -21, HSV augment inactive, GALR2 agonist -0.3 and HSV augment primary fold 1.
CCOC(=O)C/C(N)=N/N(C)c1ncc(C(F)(F)F)cc1Cl was read as RGS16-Gao HTS 92, PKD1 kinase inh -6, HSV augment inactive, Insulin prom inh -24, Insulin prom inh cell count 99 and HSV augment primary fold 1.
`Cc1ccc(NC(=O)CSc2nc3c(c(=O)[nH]2)CN(Cc2ccc(F)cc2)CC3)cc1C` gave RGS16-Gao HTS 96, PKD1 kinase inh 5, HSV augment inactive, GALR2 agonist -1.0 and HSV augment primary fold 1.2.
`CC(C)OC(=O)c1c(NS(=O)(=O)c2ccccc2)sc2c1CCCC2` gave RGS16-Gao HTS 110, PKD1 kinase inh 1, HSV augment inconclusive, Insulin prom inh 11, GALR2 agonist -2.3 and Insulin prom inh cell count 13.
CC(=O)Nc1ccc(OC(=O)Oc2ccc(NC(C)=O)cc2)cc1 was read as RGS16-Gao HTS 104, HSV augment inactive and HSV augment primary fold 0.99.
For CCCN1CNC(=S)N(c2ccc(C(=O)OCC)cc2)C1 the results were RGS16-Gao HTS 224, PKD1 kinase inh -7, HSV augment inactive, Insulin prom inh 27, GALR2 agonist -0.4, Insulin prom inh cell count 92 and HSV augment primary fold 0.97.
CC(C)(C)c1ccc(S(=O)(=O)NCC(=O)Nc2ccc(-c3nc4ccccc4s3)cc2)cc1 was read as RGS16-Gao HTS 122, PKD1 kinase inh 2, HSV augment inactive, Insulin prom inh 17, GALR2 agonist -1.1, Insulin prom inh cell count 104 and HSV augment primary fold 0.84.
`COc1ccc(-c2nn(-c3ccccc3)cc2C(=O)Nc2nccs2)cc1` gave RGS16-Gao HTS 52, PKD1 kinase inh -1, HSV augment inactive, GALR2 agonist -0.7 and HSV augment primary fold 0.84.
